Mtb betalactam – beta-lactam sensitization of Mtb H37Rv, H37Rv; 330,000 compounds, 0.27% hits; inhibition, % at 25 µM; M. tuberculosis H37Rv growth with meropenem, percent inhibition; hits of this screen are not shown here;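 active means about 74% or more and at least 40 points above the plate without the antibiotic, then above 30% in a dose series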;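 further: growth measured after seven days incubation then overnight dye step; 0% = bacteria only wells and 100% = bacteria with antibiotic; twin plates without the antibiotic show which effects depend on it; some results filed as inactive read as strong as hits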
YopH inh – YopH tyrosine phosphatase inhibitors, primary screen, biochemical, fluorescence Ex485/Em525; YopH tyrosine phosphatase [Yersinia enterocolitica]; inhibition, %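 (about 10 µM by stock and volumes)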; 140,000 compounds, 0.16% hits;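 active means inhibition of 50% or more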;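 further: controls were vehicle for no effect and minimum signal wells for full effect; inactives centre near -20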
Mtb H37Rv – M. tuberculosis H37Rv growth inhibitors, H37Rv strain (AID 1626); 220,000 compounds, 0.95% hits; M. tuberculosis H37Rv growth inhibition; higher % means a stronger effect; one-dose inhibition, % at 10 µM; IC50 in µM for titrated hits;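 active means confirmed in a dose series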;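 further: bacteria incubated seven days before Alamar blue readout; 0% = bacteria only wells and 100% = bacteria with antibiotic wells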
RecA splice inh – Mtb RecA intein splicing inhibitors, primary screen, biochemical, fluorescence, HTS; AID 2221, 2009; cell-free RecA intein splicing; 290,000 compounds, 0.75% hits; Protein RecA (Mycobacterium tuberculosis (strain ATCC 25618 / H37Rv)), P9WHJ3; inhibition, %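 (about 9 µM by stock and volumes)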; in the data active means inhibition above about 30%;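 further: 0% = vehicle wells and 100% = reference inhibitor control wells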
Target sequence (P9WHJ3 whole entry, looked up, canonical isoform): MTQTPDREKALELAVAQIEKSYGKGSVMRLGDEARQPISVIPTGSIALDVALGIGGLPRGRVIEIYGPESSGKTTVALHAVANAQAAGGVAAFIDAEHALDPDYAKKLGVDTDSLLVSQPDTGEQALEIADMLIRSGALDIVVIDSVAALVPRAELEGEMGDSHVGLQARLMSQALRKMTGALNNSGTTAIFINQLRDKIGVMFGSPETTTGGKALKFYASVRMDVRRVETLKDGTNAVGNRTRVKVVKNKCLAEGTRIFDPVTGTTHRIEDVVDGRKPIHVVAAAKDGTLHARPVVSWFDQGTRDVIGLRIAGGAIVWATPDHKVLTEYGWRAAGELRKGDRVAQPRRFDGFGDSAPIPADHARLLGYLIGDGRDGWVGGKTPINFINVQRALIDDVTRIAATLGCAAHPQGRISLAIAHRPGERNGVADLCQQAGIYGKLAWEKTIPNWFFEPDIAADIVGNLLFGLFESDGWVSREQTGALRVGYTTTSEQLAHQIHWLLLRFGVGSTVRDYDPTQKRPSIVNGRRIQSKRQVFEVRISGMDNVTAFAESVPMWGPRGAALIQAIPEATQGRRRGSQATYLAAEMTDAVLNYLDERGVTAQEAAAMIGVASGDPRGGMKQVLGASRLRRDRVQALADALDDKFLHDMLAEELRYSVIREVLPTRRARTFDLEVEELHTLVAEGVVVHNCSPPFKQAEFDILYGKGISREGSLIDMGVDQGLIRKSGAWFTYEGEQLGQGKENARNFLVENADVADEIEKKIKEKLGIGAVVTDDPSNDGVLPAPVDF
Arbovirus inh – antivirals against arbovirus infection, primary screen, cell-based, full library, 10K replicate subset | 200,000 compounds, 0.37% hits | arbovirus infection cell-based antiviral screen | inhibition, % at 10 µM;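 active means inhibition from about 30%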;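 further: bluetongue infection of BSR cells; cell survival read as ATP light after 72 h; 0% = infected wells without compound and 100% = uninfected wells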
Arbovirus inh repeat – further read-out of Arbovirus inh, marked with its call; inhibition, %; measured here: 10K subset replicate screen; many hits read low in the repeat;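 first of two repeat runs on a subset; 0% = infected and 100% = uninfected wells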
Active calls of the source: *; nt = no result given. Some of the compounds tested. The share of hits here may be higher or lower than overall.

SMILES	Mtb betalactam	YopH inh	Mtb H37Rv	RecA splice inh	Arbovirus inh	others
Cc1cccc(N2CCN(C(=O)CSCc3c(C)noc3C)CC2)c1C	-4	-29	nt	2.3	21
Cc1ccc(NS(=O)(=O)c2ccc3c(c2)CCN3C(=O)CCC(=O)O)cc1Cl	8	nt	nt	-1.7	nt
O=C(Nc1cccc(F)c1)c1ccc(Br)o1	10	-36	-3%	3.7	2
Cc1cc([N+](=O)[O-])ccc1NC(=O)CSc1nccc(=O)[nH]1	0	nt	0%	1.3	7
Cc1cc(SCc2cccc(Cl)c2)nc(=O)[nH]1	5	nt	nt	0.3	nt
O=C(c1ccccc1NS(=O)(=O)c1ccc2c(c1)OCCO2)N1CCOCC1	-3	3	2%	nt	10
CCn1c(CC(=O)Nc2ccccc2F)nnc1SCC(=O)Nc1nncs1	3	nt	nt	5.8	nt
CCc1nn(CC(=O)NC(C)CCc2ccccc2)c(=O)c2cc3cc(F)ccc3n12 (stereo unspecified)	0	nt	nt	-0.5	nt
COc1cccc(C(=O)CSc2nnc(CNc3nc(-c4ccccc4)cs3)n2C)c1	14	-26	1%	6.0	10
CC(C)(C)C1CCC(=NNC(=O)c2ccc(Br)o2)CC1 (stereo unspecified)	-2	-35	-4%	-1.6	-6
CCCCCCCCS(=O)c1sc2nc3c(cc2c1N)CCCC3 (stereo unspecified)	-4	19	1%	6.4	-2
CCn1cc(S(=O)(=O)c2ccc(C)cc2)c(=O)c2cc(OC)ccc21	-6	nt	nt	-2.0	nt
COc1cccc(C2CC(c3c(F)cccc3Cl)n3nc(N)nc3N2)c1 (stereo unspecified)	-6	27	1%	-3.8	8
CC1(C)Cc2cccc(C(=O)NCc3ccco3)c2O1	-1	nt	0%	2.2	nt
CCN(CC)c1ccc(NC(=O)c2c(OC)cccc2OC)c(C)c1	88	-7	-6%	-5.8	38*
Cc1ccc2nc(CSc3nc(C)ccc3C#N)[nH]c2c1	75	-4	5%	-9.5	-5
CC(=O)Nc1cccc(NC(=O)CSc2ncc(C(=O)Nc3ccccc3)c(=O)n2C)c1	90	nt	nt	47*	nt
COc1ccc2[nH]c3c(c2c1)CCNC3C (stereo unspecified)	-2	nt	nt	-0.5	nt
O=C(CCCc1ccccc1)Nc1cccc2c1CCCC2	71	-17	2%	-3.0	-1
COc1ccc(C(=O)Nn2c(SCC(=O)c3ccc(Cl)cc3)nc3ccccc3c2=O)cc1	99	-19	78%	14	-10
O=Cc1ccc(C(=O)OCC(=O)N2CCCC2)cc1	1	nt	nt	0.3	nt
CC(Oc1ccc(Cl)cc1)c1ccn[nH]1 (stereo unspecified)	-6	nt	21%	-0.6	6
CCOC(=O)C1(CCCc2ccccc2)CCN(C(=O)c2cncs2)CC1	1	nt	-1%	3.1	1
COc1ccc(/C=N/N=C/c2c[nH]c(=O)c(C#N)c2Nc2ccccc2)cc1	-3	-25	8%	0.3	-7
CC(C)CNC(=S)N1CCC(c2nc(-c3ccc(F)cc3)no2)CC1	-1	nt	-12%	1.4	2
O=S(=O)(c1ccc(Cl)cc1)N1CCC(n2cccc2)CC1	-8	nt	7%	1.9	nt
COc1ccc(Cl)cc1NC(=O)c1cc(-c2cc(C)ccc2O)n[nH]1	-7	nt	-6%	-1.0	nt
CC(C)(C)CC(C)(C)NCC(=O)Nc1c2c(nc3ccccc13)CCC2	4	nt	-3%	-2.9	12
CCOC(=O)c1c(S(=O)(=O)NCCc2ccccc2)c(C)n(C)c1C	-6	nt	nt	0.6	nt
CN(c1ccccc1)S(=O)(=O)c1ccc(Cl)c(C(=O)OCC(N)=O)c1	-9	nt	-9%	0.8	5
Cc1ccc(-c2ccc(=O)n(CCC(=O)NCc3ccccn3)n2)cc1	-8	-12	-2%	1.5	1
O=C(O)Cn1nnc2ccccc21	-7	nt	-10%	-1.0	nt
O=c1cc(-c2ccccc2)oc2cc(O)cc(O)c12	2	nt	18%	nt	nt
COc1cccc(CCNC(=O)c2ccc(OC)c(OC3CCN(C(C)C)CC3)c2)c1	-8	nt	nt	-0.2	nt
CSCC(=O)NC1CCCc2c1cnn2-c1ccc(C)c(C)c1 (stereo unspecified)	-9	nt	nt	0.1	nt
CC(=O)Nc1cnc(NC(=O)c2cccc(F)c2)cc1C	-2	2	-5%	-0.5	-5
CCc1nnc(NC(=O)c2cc(Cl)ccn2)s1	91	nt	nt	-2.8	nt
CCc1ccc(NC(=O)C(=O)NCC2CCCN2S(=O)(=O)c2ccccc2)cc1 (stereo unspecified)	-13	nt	nt	0.3	nt
COc1cc(NC(=O)C2CCN(S(=O)(=O)c3cccnc3)CC2)cc(OC)c1OC	2	10	-7%	0.7	6
Cn1c(SCC(=O)Nc2ccccc2)nc2c([nH]c3ccccc32)c1=O	5	nt	13%	2.0	-7
Cc1ccc(C(=O)OCC(=O)Nc2cccc(S(=O)(=O)NC3=NCCCCC3)c2)c(C)c1	-3	nt	11%	8.9	3
CC12CN3CC(C)(CN(C1)C3c1cccnc1)C2=O (stereo unspecified)	-9	-58	0%	-0.4	3	Arbovirus inh repeat=0
O=C(CN1C(=O)c2ccccc2C1=O)Nc1sc2c(c1C(=O)NCc1ccco1)CCCC2	-6	-57	-3%	-0.5	13
COC(=O)c1cccc(NC(=O)c2ccc3c(c2)C(=O)N(Cc2cccnc2)C3=O)c1	-8	nt	nt	-4.2	nt
Cc1ccc(CN2CCSc3ccc(C(=O)N4CCOCC4)cc32)cc1	-6	nt	nt	3.7	nt
CCCc1cc(=O)[nH]c(/N=C(\N)Nc2ccccc2)n1	-8	-2	-5%	nt	0
Cc1ccc(SCC(=O)NCc2ccccc2C)cc1	0	nt	nt	-6.6	nt
Cc1cccc(C)c1NC(=S)NNc1ncc(C(F)(F)F)cc1Cl	-14	-11	2%	-3.4	-4
Cc1cc(C)c(S(=O)(=O)N2CCCCCC2)cc1Br	1	nt	2%	9.0	1
O=C(Nc1nnc(-c2ccc(Cl)s2)o1)C1CCCCC1	68	-26	3.8µM*	1.0	-3	Arbovirus inh repeat=-3
O=C(CSc1nnc(CNC(=O)c2ccco2)o1)c1ccc(Cl)cc1	-7	-137	-14%	1.2	-3
COc1ccc(CNC(=O)CCc2c(C)nc3ncnn3c2C)cc1	-18	-40	15%	-0.4	0
CN1CCN(C(=O)c2cnn(-c3ccccc3)c2NC(=O)c2ccccc2F)CC1	-4	-33	-6%	-1.9	-14
CCc1noc(C)c1C(=O)Nc1ncc(C)s1	-1	-16	0%	6.7	-1
O=[N+]([O-])c1ccc(S(=O)(=O)CC(CN2CCOCC2)N2CCOCC2)cc1 (stereo unspecified)	-2	nt	-1%	-3.1	10
C/C(=C/C(=O)Nc1cccc(F)c1)N1CCCC1	8	nt	-11%	-1.1	6
COc1ccccc1N1CCN(S(=O)(=O)c2cnc[nH]2)CC1	7	-53	-2%	0.7	4
Cc1cc(NC(=O)C(C)SCC(=O)Nc2nnc(CC(C)C)s2)no1 (stereo unspecified)	-11	nt	nt	1.2	nt
O=C(/C=C/c1ccccc1)Nc1cccnc1Oc1ccccc1F	-2	nt	4%	9.6	nt
Nc1nnc(SCC(=O)c2ccco2)s1	-7	-8	1%	0.6	9

Remaining list, next part
SMILES	Mtb betalactam	YopH inh	Mtb H37Rv	RecA splice inh	Arbovirus inh	others
COc1ccc(-c2[nH]c(-c3ccc(SC)cc3)nc2SCC(=O)Nc2nccs2)cc1	18	-34	51%	-3.0	-15
Cc1cc(-n2nc(C)cc2C)n2nc(C)c(-c3ccc(Cl)cc3)c2n1	-6	0	3%	-1.8	-2
COc1ccc(OCCC(=O)N2CCCCC2)cc1	-7	-8	nt	0.5	7
COc1ccc(-c2cc(C(F)(F)F)n3ncc(C(=O)O)c3n2)cc1OC	-5	-49	-7%	-1.1	3
CCOc1ccc(C2=CSC3=NCCN23)cc1Cl	88	nt	nt	2.2	nt
Cc1ccc2c(c1)CN1CN2Cc2cc(C)ccc21	3	7	-2%	1.5	11
O=C(NC1CCN(Cc2ccccc2)CC1)c1c(Cl)cccc1Cl	-5	nt	nt	0.3	nt
OCCNc1nc(-c2ccccc2)c2cc(Cl)ccc2n1	15	nt	13%	-238	-19
CCOc1ccc(CNC(=O)c2ccc(Sc3ccc(Cl)cc3)c(NC(C)=O)c2)cc1OC	-7	-10	3%	-2.9	-16
COc1ccccc1OCCNC(=O)C1CC(=O)N(c2ccc3c(c2)OCCO3)C1 (stereo unspecified)	-2	nt	nt	-1.5	nt
COC(=O)c1cc(NC(=O)c2nn(C)c(=O)c3ccccc23)cc(C(=O)OC)c1	0	nt	2%	-0.3	11
CC(=O)N1N=C(c2ccncc2)OC12CCCCCC2	5	-27	-6%	-1.1	6
Cn1nccc1C(=O)Nc1ccc(Cl)cc1	1	-7	-8%	-0.8	8
Cc1[nH]c2ccccc2c1C(=O)C(=O)N1c2ccccc2CC1C (stereo unspecified)	0	nt	nt	4.2	nt
CCOc1ccc2nc(NCCNC(=O)C(C)C)c(C)cc2c1	-2	-29	0%	-1.7	4
Cn1c(SCC(=O)c2ccc(F)cc2)nnc1-c1cccnc1	1	nt	-1%	nt	0
CCCCN(CCCC)S(=O)(=O)c1ccc(NC(=O)c2cccs2)cc1	-1	-16	0%	13	-2
Cc1cccc(C)c1Nc1c(-c2ccccc2O)nc2ncccn12	-1	nt	-2%	1.2	nt
CCCCCCn1nc(C(=O)OCC(=O)NC2CCS(=O)(=O)C2)c2ccccc2c1=O (stereo unspecified)	3	nt	12%	1.2	9
O=C(Cn1cnc2ccccc2c1=O)Nc1cccc(S(=O)(=O)N2CCCCC2)c1	1	nt	0%	1.6	nt
CN1CCC(OC(c2ccccc2)c2ccccc2)CC1	-3	-24	-5%	0.7	-15
CNC(=O)c1cc2c(s1)-c1ccccc1CC2	3	nt	-2%	1.4	-13
Cc1noc(C)c1S(=O)(=O)N1CCN(c2ccccc2)CC1	0	-44	-3%	0.0	1
CCOC(=O)c1[nH]c2ccc(OCC)cc2c1NC(=O)CN1CCN(c2ccccn2)CC1	-10	-25	2%	-0.7	0
CC1CCN(S(=O)(=O)c2cccc(C(=O)N(C)C3(C)CCS(=O)(=O)C3)c2)CC1 (stereo unspecified)	6	nt	nt	-3.3	nt
O=C(O)CCc1nn2c3ccccc3n(Cc3ccccc3F)c2nc1=O	-2	nt	-2%	2.2	3
CC(Oc1ccc(F)cc1F)C(=O)/C=C/N(C)C (stereo unspecified)	3	-11	-3%	nt	3
O=C(c1cc2cc([N+](=O)[O-])ccc2oc1=O)N1CCN(c2ncccn2)CC1	-5	5	-10%	1.4	-3
O=c1[nH]c(=O)n(Cc2ccc(F)cc2)c(O)c1C=NCCCN1CCOCC1	7	-6	-1%	0.5	12

Three entries out of the list, arranged by molar mass, highest first.
SMILES	Mtb betalactam	YopH inh	Mtb H37Rv	RecA splice inh	Arbovirus inh	others
CCOC(=O)c1[nH]c2ccc(OCC)cc2c1NC(=O)CN1CCN(c2ccccn2)CC1	-10	-25	2%	-0.7	0
O=C(O)CCc1nn2c3ccccc3n(Cc3ccccc3F)c2nc1=O	-2	nt	-2%	2.2	3
Cc1cccc(C)c1Nc1c(-c2ccccc2O)nc2ncccn12	-1	nt	-2%	1.2	nt

Compounds listed so far containing an NH in an aromatic ring (14):
SMILES	Mtb betalactam	YopH inh	Mtb H37Rv	RecA splice inh	Arbovirus inh	others
Cc1cc([N+](=O)[O-])ccc1NC(=O)CSc1nccc(=O)[nH]1	0	nt	0%	1.3	7
Cc1cc(SCc2cccc(Cl)c2)nc(=O)[nH]1	5	nt	nt	0.3	nt
Cc1ccc2nc(CSc3nc(C)ccc3C#N)[nH]c2c1	75	-4	5%	-9.5	-5
COc1ccc2[nH]c3c(c2c1)CCNC3C (stereo unspecified)	-2	nt	nt	-0.5	nt
CC(Oc1ccc(Cl)cc1)c1ccn[nH]1 (stereo unspecified)	-6	nt	21%	-0.6	6
COc1ccc(/C=N/N=C/c2c[nH]c(=O)c(C#N)c2Nc2ccccc2)cc1	-3	-25	8%	0.3	-7
COc1ccc(Cl)cc1NC(=O)c1cc(-c2cc(C)ccc2O)n[nH]1	-7	nt	-6%	-1.0	nt
Cn1c(SCC(=O)Nc2ccccc2)nc2c([nH]c3ccccc32)c1=O	5	nt	13%	2.0	-7
CCCc1cc(=O)[nH]c(/N=C(\N)Nc2ccccc2)n1	-8	-2	-5%	nt	0
COc1ccccc1N1CCN(S(=O)(=O)c2cnc[nH]2)CC1	7	-53	-2%	0.7	4
COc1ccc(-c2[nH]c(-c3ccc(SC)cc3)nc2SCC(=O)Nc2nccs2)cc1	18	-34	51%	-3.0	-15
Cc1[nH]c2ccccc2c1C(=O)C(=O)N1c2ccccc2CC1C (stereo unspecified)	0	nt	nt	4.2	nt
CCOC(=O)c1[nH]c2ccc(OCC)cc2c1NC(=O)CN1CCN(c2ccccn2)CC1	-10	-25	2%	-0.7	0
O=c1[nH]c(=O)n(Cc2ccc(F)cc2)c(O)c1C=NCCCN1CCOCC1	7	-6	-1%	0.5	12

Bioassay records deposited in PubChem by several laboratories.
